High-throughput results from PubChem.
RecA intein inh – Mtb RecA intein splicing inhibitors, primary screen, biochemical, fluorescence, HTS. Protein RecA (Mycobacterium tuberculosis (strain ATCC 25618 / H37Rv)), P9WHJ3. cell-free RecA intein splicing. inhibition, %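 (about 9 µM by stock and volumes)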. actives 0.75% (n = 290,000). AID 2221, 2009; in the data active = inhibition above about 30%; inconclusive = no clear call, values can overlap the other calls;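 also: 0% = vehicle wells and 100% = reference inhibitor control wells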
Target sequence (P9WHJ3 whole entry, looked up): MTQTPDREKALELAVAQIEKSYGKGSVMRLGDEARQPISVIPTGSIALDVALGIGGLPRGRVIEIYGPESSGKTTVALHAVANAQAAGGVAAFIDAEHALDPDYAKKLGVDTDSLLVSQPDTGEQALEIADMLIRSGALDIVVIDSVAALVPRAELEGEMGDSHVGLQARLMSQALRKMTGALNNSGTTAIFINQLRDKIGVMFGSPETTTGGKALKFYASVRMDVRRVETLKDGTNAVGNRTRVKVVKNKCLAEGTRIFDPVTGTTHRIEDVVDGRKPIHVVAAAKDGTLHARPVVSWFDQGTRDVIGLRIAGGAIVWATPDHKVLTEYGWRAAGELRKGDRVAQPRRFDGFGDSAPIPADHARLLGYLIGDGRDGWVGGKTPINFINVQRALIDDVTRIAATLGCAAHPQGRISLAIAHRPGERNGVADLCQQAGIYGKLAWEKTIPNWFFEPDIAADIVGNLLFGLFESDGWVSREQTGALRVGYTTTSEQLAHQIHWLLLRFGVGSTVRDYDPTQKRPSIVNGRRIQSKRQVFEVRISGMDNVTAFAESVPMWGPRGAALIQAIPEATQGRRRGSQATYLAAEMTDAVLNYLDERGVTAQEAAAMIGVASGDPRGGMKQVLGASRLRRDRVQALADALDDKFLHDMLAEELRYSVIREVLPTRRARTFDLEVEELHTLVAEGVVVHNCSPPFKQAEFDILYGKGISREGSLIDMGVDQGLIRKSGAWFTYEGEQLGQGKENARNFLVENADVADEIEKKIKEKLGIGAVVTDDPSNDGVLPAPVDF
Arbovirus inh – antivirals against arbovirus infection, primary screen, cell-based, full library, 10K replicate subset. actives 0.37% (n = 200,000). arbovirus infection cell-based antiviral screen. inhibition, % at 10 µM;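 active = inhibition from about 30%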;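 also: bluetongue infection of BSR cells; cell survival read as ATP light after 72 h; 0% = infected wells without compound and 100% = uninfected wells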
Mtb betalactam – beta-lactam sensitization of Mtb H37Rv, H37Rv | inhibition, % at 25 µM | actives 0.27% (n = 330,000) | M. tuberculosis H37Rv growth with meropenem, percent inhibition; hits of this screen are not shown here;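 active = about 74% or more and at least 40 points above the plate without the antibiotic, then above 30% in a dose series; inconclusive = first-round hits that could not be retested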;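 also: growth measured after seven days incubation then overnight dye step; 0% = bacteria only wells and 100% = bacteria with antibiotic; twin plates without the antibiotic show which effects depend on it; some results filed as inactive read as strong as hits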
Mtb growth – M. tuberculosis H37Rv growth inhibitors, H37Rv strain (AID 1626). actives 0.95% (n = 220,000). inhibition, % at 10 µM; hits with a dose series show IC50 in µM. M. tuberculosis H37Rv growth inhibition; higher % means a stronger effect;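 active = confirmed in a dose series; inconclusive = inhibition above 80% but not taken into the dose series; inactive = below 80% or under 30% at every dose of the series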;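 also: bacteria incubated seven days before Alamar blue readout; 0% = bacteria only wells and 100% = bacteria with antibiotic wells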
YopH inh – YopH tyrosine phosphatase inhibitors, primary screen, biochemical, fluorescence Ex485/Em525 | YopH tyrosine phosphatase [Yersinia enterocolitica] | inhibition, %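 (about 10 µM by stock and volumes)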 | actives 0.16% (n = 140,000);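 active = inhibition of 50% or more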;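 also: controls were vehicle for no effect and minimum signal wells for full effect; inactives centre near -20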
Arbovirus inh repeat – further read-out of Arbovirus inh, marked with its call; inhibition, %; measured here: 10K subset replicate screen; many hits read low in the repeat;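 first of two repeat runs on a subset; 0% = infected and 100% = uninfected wells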
* = called active by the depositor; ? = inconclusive; · = no result given; & = joins results of further samples.

Sample of the layout, 2 compounds:
SMILES	RecA intein inh	Arbovirus inh	Mtb betalactam	Mtb growth	YopH inh	others
COc1ccc(CC2(CO)COc3ccccc3C2=O)cc1 (stereo unspecified)	1.5	·	-2	·	·
CCN1CCN(CCCNC(=O)CCC(=O)N2CCOc3ccc(Cl)cc32)CC1	-0.7	·	3	·	·

Main list, previewed entries included:
SMILES	RecA intein inh	Arbovirus inh	Mtb betalactam	Mtb growth	YopH inh	others
COc1ccc(CC2(CO)COc3ccccc3C2=O)cc1 (stereo unspecified)	1.5	·	-2	·	·
CCN1CCN(CCCNC(=O)CCC(=O)N2CCOc3ccc(Cl)cc32)CC1	-0.7	·	3	·	·
CC(=O)Nc1ccc(S(=O)(=O)N2CCN(c3nc(C)cc(C)n3)CC2)cc1	-2.7	·	5	·	·
COC(=O)CSc1nnc(-c2ccccc2OC)n1-c1ccc(C)cc1	2.1	4	-1	-9%	-51
CC1Oc2cc3oc4c(O)c5c(cc4c(=O)c3c(O)c2C1(C)C)C=CC(C)(C)O5 (stereo unspecified)	1.7	·	36	44%	·
COc1cc(S(=O)(=O)NCc2ccncc2)c(OC)cc1Br	3.5	·	-5	·	·
O=C(COC(=O)C1=COCCO1)Nc1ccc(F)c(F)c1	0.7	·	38	·	·
Cc1ccc(S(=O)(=O)NCCC(=O)Nc2ccc(C)c(Cl)c2)cc1C	2.3	-17	93	20µM*	-19
CCOC(=O)C(Cc1cc(C(C)=O)ccc1OC(C)C)C(=O)OCC	-0.9	4	40	0%	-40
CCCN1C(=O)COc2ccc(-c3n[nH]c(=O)c4ccccc34)cc21	-0.8	1	1	-1%	·
COc1cc(NC(=O)Cc2ccccc2)c(C(=O)O)cc1OC	-5.3	2	7	4%	·
Cc1ccc(S(=O)(=O)Nc2ccccc2C(=O)Nc2nc(-c3ccc(F)cc3)cs2)cc1	6.7	-34	-7	7%	-11
O=c1ccc2ccc(Oc3ccc(Cl)cc3[N+](=O)[O-])cc2o1	1.1	0	-4	6%	·
O=C(CNC(=O)N1CC(=O)Nc2ccccc21)NCc1ccccc1Cl	-2.9	·	1	·	·
Cc1ccc(C(O)(COC(=O)C(C)C)COC(=O)C(C)C)c(O)c1	·	7	-9	-4%	·
C[C@]12CC[C@@H](O)C[C@H]1CC[C@@H]1[C@@H]2CC[C@]2(C)C(=O)CC[C@@H]12	2.9	·	9	·	·
CS(=O)(=O)N(Cc1ccccc1)c1ccccc1C(=O)Nc1ccccc1C(=O)NCc1ccco1	·	5	-10	-4%	1
C1=CC2CCC1ON2c1ccccc1 (stereo unspecified)	1.2	3	1	-4%	-8
CCn1c(C)nc2cc(C(=O)NNS(=O)(=O)c3ccc(C)c(C)c3)ccc21	-0.5	-1	-6	-6%	-11
CC(C)NC(=O)/C(=C/c1ccco1)c1ccccc1	0.2	1	-1	6%	-12
CNC(=O)Nc1cccc2cccnc12	-1.4	·	-8	-9%	·
COc1ccc(CN(C)Cc2nc(Cc3ccccc3Cl)no2)cc1OC	1.5	-1	-10	-1%	·
CCCCNC(=O)c1ccc(N2CCC3(CC2)OCCO3)c([N+](=O)[O-])c1	3.1	0	-6	6%	-14
CC1Cc2ccccc2N1C(=O)CCS(=O)(=O)c1cccs1 (stereo unspecified)	1.1	1	-1	-10%	5
On1c(-c2ccccc2Cl)nc2ncccc21	-0.7	·	-4	·	·

The closing 2 compounds of the section above come first, to join the parts:
SMILES	RecA intein inh	Arbovirus inh	Mtb betalactam	Mtb growth	YopH inh	others
CC1Cc2ccccc2N1C(=O)CCS(=O)(=O)c1cccs1 (stereo unspecified)	1.1	1	-1	-10%	5
On1c(-c2ccccc2Cl)nc2ncccc21	-0.7	·	-4	·	·
O=C1NCC(COCC2CC=CCC2)O1 (stereo unspecified)	-0.1	-2	-11	-3%	-38
CC(C)C[C@H](NC(=O)Nc1ccc(Oc2ccccc2)cc1)C(=O)O	-5.3	-3	-3	3%	-45
CCOc1ccc(NS(=O)(=O)c2ccc(NC(=O)[C@@H]3CCCC[C@@H]3C(=O)O)cc2)cc1	1.5	-8	7	1%	-21
COc1ccc(OC)c(NC(=O)CSc2nncc3ccccc23)c1	2.0	·	-5	·	·
COC(=O)CCC(=O)OC1(C)C(=O)C=C2C=C(C3CC3)N(CCc3c[nH]c4ccccc34)C=C2C1=O (stereo unspecified)	-0.1	·	-1	-12%	·
COc1ccc(OC)c(C2C(C(=O)Nc3ccccc3OC)=C(C)Nc3nc(CCCO)nn32)c1 (stereo unspecified)	-2.6	0	0	-10%	-19	Arbovirus inh repeat=1
CC(C)(C)NC[C@H](O)COc1nsnc1N1CCOCC1	-1.0	13	5&-1	3%	-64
COc1cc(NC(=S)Nc2ccc(Br)cc2Cl)c(OC)cc1Cl	2.5	-3	3	5%	-13
C=CCOc1cccc(C2C(C(=O)c3ccc(C)o3)=C(O)C(=O)N2CCCn2ccnc2)c1 (stereo unspecified)	1.0	·	-6	·	·
Fc1cc(F)c2nc(Nc3nc4c(F)cccc4s3)sc2c1	0.6	14	4	-1%	-10
COc1ccc(C(CNC(=O)c2cccc(S(=O)(=O)Nc3ccc(C)cc3)c2)N2CCOCC2)cc1 (stereo unspecified)	0.4	·	-2	·	·
Cc1ccc2c(CSc3nnnn3C)cc(=O)oc2c1	·	-2	-9	5%	·
CCSC1=NC2(CCCCC2)Nc2sc3c(c21)CCCC3	16	-9	4	4%	-17
O=C1c2cccnc2C(Nc2ccccc2Br)N1Cc1ccco1 (stereo unspecified)	2.4	1	0	-2%	·
Cc1ccc(NC(=O)CN(C)C(=O)C2CC(=O)N(Cc3ccccc3)C2)cc1 (stereo unspecified)	-2.6	·	6	·	·
COc1ccc(C2C3=C(N=C4SCC(=O)N42)c2ccccc2CC3)cc1OC (stereo unspecified)	7.7	15	?	-7%	-8
O=C(O)C1CCCN(S(=O)(=O)c2ccc(Cl)s2)C1 (stereo unspecified)	1.6	3	2	-15%	-17	Arbovirus inh repeat=-2
O=c1[nH]n(CC2COC3(CCCCC3)O2)c(=O)c2ccccc12 (stereo unspecified)	2.9	-5	-3	4%	-49
O=C(Nc1ccccc1)c1cccc(NC(=O)c2ccco2)c1	2.2	·	-12	·	·
COc1ccc(/C(C)=N/OC/C(O)=C(\C#N)c2nc3ccccc3[nH]2)cc1OC	4.3	-6	4	-5%	·
COC(=O)C1C(=O)N2CCCSC2=C(C#N)C1c1cccs1 (stereo unspecified)	·	-3	1	-14%	-36
O=C(CSc1nc2ccccc2o1)Nc1nccs1	-2.3	5	98	?	·
CC(=O)c1ccccc1OCCOc1ncnc2sccc12	-0.8	7	97	-2%	·
Cc1nc2nc(C)c(CCC(=O)N3CCN(c4ccccc4)CC3)c(C)n2n1	·	8	0	-7%	-8
Cc1ccc(NC(=O)Nc2nnc(-c3ccccc3)o2)cc1	-2.5	5	82	3%	·

Looked up by structure from the list above (5):
SMILES	RecA intein inh	Arbovirus inh	Mtb betalactam	Mtb growth	YopH inh	others
CS(=O)(=O)N(Cc1ccccc1)c1ccccc1C(=O)Nc1ccccc1C(=O)NCc1ccco1	·	5	-10	-4%	1
COc1ccc(/C(C)=N/OC/C(O)=C(\C#N)c2nc3ccccc3[nH]2)cc1OC	4.3	-6	4	-5%	·
Cc1ccc(NC(=O)CN(C)C(=O)C2CC(=O)N(Cc3ccccc3)C2)cc1 (stereo unspecified)	-2.6	·	6	·	·
COC(=O)CSc1nnc(-c2ccccc2OC)n1-c1ccc(C)cc1	2.1	4	-1	-9%	-51
COc1ccc(C2C3=C(N=C4SCC(=O)N42)c2ccccc2CC3)cc1OC (stereo unspecified)	7.7	15	?	-7%	-8

Returning to the listing, repeating the seven entries before the break.
SMILES	RecA intein inh	Arbovirus inh	Mtb betalactam	Mtb growth	YopH inh	others
O=C(Nc1ccccc1)c1cccc(NC(=O)c2ccco2)c1	2.2	·	-12	·	·
COc1ccc(/C(C)=N/OC/C(O)=C(\C#N)c2nc3ccccc3[nH]2)cc1OC	4.3	-6	4	-5%	·
COC(=O)C1C(=O)N2CCCSC2=C(C#N)C1c1cccs1 (stereo unspecified)	·	-3	1	-14%	-36
O=C(CSc1nc2ccccc2o1)Nc1nccs1	-2.3	5	98	?	·
CC(=O)c1ccccc1OCCOc1ncnc2sccc12	-0.8	7	97	-2%	·
Cc1nc2nc(C)c(CCC(=O)N3CCN(c4ccccc4)CC3)c(C)n2n1	·	8	0	-7%	-8
Cc1ccc(NC(=O)Nc2nnc(-c3ccccc3)o2)cc1	-2.5	5	82	3%	·
CCOc1ccc(OCCn2c(SCC(=O)O)nc3ccccc32)cc1	-0.4	·	-11	·	·
S=C(NCCCn1ccnc1)NC1CCCCC1	5.0	-4	-3	-3%	-19
Cc1cc(NC(=O)CSc2nc3ccccc3[nH]2)no1	3.5	5	-6	6%	-35
O=c1c2c(-c3ccccc3)csc2nc2c3ccccc3c(NCCN3CCOCC3)nn12	-6.0	-37	·	?	·
Cc1ccccc1CSCC(=O)NC(=O)NC(C)(C)C	-0.8	-1	5	9%	-10
COCc1cc(C)nc(SCC(=O)Nc2ccccc2N2CCOCC2)c1C#N	1.3	·	-1	·	·
Cc1ccc(Cn2ccc(NC(=O)c3c(-c4ccccc4Cl)noc3C)n2)cc1	-2.7	-1	21	-2%	10
Cn1nnc(NC(=O)c2ccco2)n1	-0.1	7	-12	-12%	-29
COc1ccccc1Nc1nc(N)nc(CSC(=S)N2CC(C)CC(C)C2)n1 (stereo unspecified)	2.9	-6	3	5%	-19
O=C(CSc1nc2c(c(=O)n1-c1ccc(Cl)cc1)SCC2)Nc1ccc2c(c1)OCCO2	·	5	-1	-4%	15	Arbovirus inh repeat=1
O=[N+]([O-])c1ccc(O)c(-c2nn[nH]n2)c1	·	-3	-2	-2%	1
O=C1C2C3CCC(C3)C2C(=O)N1Cc1ccccc1 (stereo unspecified)	0.0	2	0	1%	-17
COc1ccccc1C(=O)O/N=C(\N)c1ccccc1Cl	1.3	-6	6	6%	-25
CCCS(=O)(=O)NCc1cn2c(C)csc2n1	0.8	7	-3	1%	-36	Arbovirus inh repeat=-2
O=C(OC(C(=O)Nc1ccc(Cl)cc1C(F)(F)F)c1ccccc1)C1=COCCO1 (stereo unspecified)	-8.1	3	·	58%	-15
CSc1ccc(C2Nc3cccc4cccc(c34)N2)cc1	5.4	·	9	·	·
CCc1nnc(NC(=O)CSc2nnc(COc3ccccc3)n2Cc2ccccc2)s1	·	-4	1	-6%	-33
Cn1c(Sc2ccccc2Cl)c(C=O)c2ccccc21	3.0	-3	7	·	-16
Cc1ccc(/C=N/NC(=O)c2nnn(-c3nonc3N)c2-c2cccs2)cc1	-3.8	·	0	·	·
CC(C)c1ccc(C2NCc3ccccc3-n3cccc32)cc1 (stereo unspecified)	0.4	·	5	·	·
CCn1c(CNC(=O)c2ccc(Cl)cc2)nnc1SCC(=O)N1CCOCC1	0.9	·	-5	·	·
O=C(NCC1COc2ccccc2O1)C1CCCN(S(=O)(=O)c2cnc[nH]2)C1 (stereo unspecified)	-0.5	·	0	-8%	-14
OCC1(CO)COC(/C=C/c2ccccc2)=N1	-2.4	·	0	·	·

Only part of the results is shown. The share of hits here may be higher or lower than overall.
